# VACV Venus inh – vaccinia inhibition (Venus reporter); AID 720580; Vaccinia virus Venus reporter expression, fluorescence; actives 0.46% (n = 330,000); Potency, µM (series often up to 36.5 µM), for inactives: at the top dose activity change, negative = inhibition, actives largely listed as inhibitors; active means well fitted inhibition curve with a large enough effect; inconclusive means small, poorly fitted or top-dose-only effect; inactive means no such curve, though single readings can be large or run the other way; tested in A549 cells; note: nearly all actives have a fitted effect of over 30% in size; inactives centre near -10
# VACV mCherry inh – vaccinia inhibition (mCherry reporter) | Vaccinia virus mCherry reporter infection, fluorescence; about a quarter of the inactives have no number | Potency, µM (highest dose often 36.5 µM), inactives show at the highest dose activity change, negative = inhibition, most hits filed as inhibitors | actives 0.63% (n = 310,000); active = well fitted inhibition curve with a large enough effect; inconclusive = small, poorly fitted or top-dose-only effect; inactive = no such curve, though single readings can be large or run the other way; tested in A549 cells; note: nearly all actives have a fitted effect of over 35% in size; inactives centre near -10
# Starred values were filed as active, the others as inactive; i = inactive; ? = inconclusive; / = no result given; [ ] = remark or other dose. % is set by controls: 0 for no effect and ±100 for the full control effect; potency is the fitted concentration of half-maximal effect. No enrichment for hits. Share with any hit: about 0.87%.
SMILES,VACV Venus inh,VACV mCherry inh
O=C1CC(C(=O)N2CCN(c3ccccn3)CC2)CN1Cc1ccccc1Cl (configuration not stated),-15%,-6%
Cc1ccc(Nc2nc(CSc3nnc(-c4ccc(F)cc4)n3C)cs2)cc1,-21%,-19%
CC(=O)c1sc(-c2ccc(F)cc2)cc1NS(=O)(=O)c1ccc(C)cc1,2%,-11%
CCCNC(=O)C1(C)CCN(CCOc2ccc(Cl)cc2)C1 (configuration not stated),-10%,5%
COc1ccc(CNC(=O)CCc2nnc3n(CC(C)C)c(=O)c4ccccc4n23)cc1,-16%,i
Cc1c(C(=O)c2ccccc2)c2ccccn2c1CCc1ccccn1,-16%,i
CCO[C@@H]1OC(C(=O)N2CCN(Cc3ccccc3)CC2)=C[C@H](c2coc3ccccc3c2=O)[C@H]1CCCO,-10%,-10%
CCOC(=O)C1(Cc2cccc(Cl)c2)CCCN(C(=O)c2cc(C)on2)C1 (configuration not stated),-5%,i
COc1cc2c(C(=O)N3CCN(c4cccc(Cl)c4)CC3)cn(C)c(=O)c2cc1OC,?,?
CCOc1ccccc1NC(=O)c1ccccc1N(C)S(=O)(=O)c1ccc(C)cc1,?,-13%
CCc1ccc(NC(=O)C2CCN(S(=O)(=O)c3ccc4c(c3)NC(=O)C(C)S4)CC2)cc1 (configuration not stated),-30%,-11%
Cc1ccc(NC(=O)COC(=O)C2(CC(=O)NC(C)(C)C)CCCC2)cc1C,-21%,-16%
CCOc1ccc(C(=O)c2cn(CC(=O)Nc3ccc(Cl)cc3)c3cc4c(cc3c2=O)OCCO4)cc1,-23%,-29%
CCOc1cccc(C2c3[nH]c4ccccc4c3CCN2C(=O)CSc2ccccc2)c1 (configuration not stated),-18%,-17%
COc1ccc2[nH]c(=O)c(CN(C(=O)c3cccnc3)c3ccc(C)cc3C)cc2c1,-5%,15%
Cc1ccc2[nH]c(=O)c(CN(C(=O)c3cccc(Cl)c3)C(C)(C)C)cc2c1,-11%,-16%
COc1ccc(-c2c(C#Cc3ccsc3)c3cc(-c4ccc(C(N)=O)cc4)ccc3n2C)cc1,-13%,-5%
COc1ccc(CCNC(=O)c2c(C)noc2C)cc1,6%,-10%
COC(=O)c1ccc(Cl)cc1NC(=O)N1CCC(CN2CCCC2)CC1,-7%,-4%
Cc1ccc(NC(=O)COC(=O)CCc2ccccc2)c(Cl)c1,-13%,9%
CC1CCc2sc(C(=O)OCC(=O)NC(C)C)cc2C1 (configuration not stated),-18%,-15%
COc1cc(-c2cc(C(=O)Nc3ccc(C)c(S(=O)(=O)N4CCOCC4)c3)c3ccccc3n2)cc(OC)c1OC,-10%,-22%
COC(=O)CCCCCNc1ccc(C(=O)OC)cc1N,-8%,/
O=C(NCCN1CCOCC1)c1ccc([N+](=O)[O-])cc1[N+](=O)[O-],-1%,1%
COc1ccccc1Cc1nc2ccccc2nc1SCC(=O)N1CCCCC1,-24%,-17%
Cc1ccc(Cl)cc1N1CCN(C(=O)c2cc3c(=O)n(C)c4ccccc4c3n2C)CC1,-25%,?
COc1ccc(Cl)cc1NC(=O)C(OC)c1ccccc1 (configuration not stated),-7%,-10%
CC(=O)Oc1ccc(-c2ccc(C(=O)O)cc2)cc1,0%,-4%
O=C(COC(=O)Cc1cccc(C(F)(F)F)c1)NC1CCS(=O)(=O)C1 (configuration not stated),-8%,-18%
CCOC(=O)c1c(CSc2ccc(CC)cc2)oc2ccc(O)c(CN(C)C)c12,?,-24%
Cc1cc(NC(=O)Nc2cccc(Cl)c2)n(-c2ccccn2)n1,-16%,-16%
O=C(C1CC1)N(Cc1nc2ccccc2c(=O)[nH]1)Cc1cccs1,-5%,-12%
Cc1nn(C)cc1CN(C)C(=O)c1cc2nc(-c3ccco3)cc(C(F)(F)F)n2n1,-26%,/
CCCN1C(=O)/C(=C\C=C2/Sc3ccccc3N2CCO)SC1=S,109%[activator],8%
COc1ccc(NC(=O)Cn2ncc3c4ccccc4n(Cc4ccccc4)c3c2=O)cc1OC,4%,4%
CCOC(=O)C1CCN(C(=O)C2CCN(S(=O)(=O)c3cccc4nsnc34)CC2)CC1,-2%,i

# 5 entries from above, with two lines to a compound.
# Under each structure: VACV Venus inh | VACV mCherry inh
> CCOC(=O)c1c(CSc2ccc(CC)cc2)oc2ccc(O)c(CN(C)C)c12
→ ? | -24%
> Cc1cc(NC(=O)Nc2cccc(Cl)c2)n(-c2ccccn2)n1
→ -16% | -16%
> O=C(C1CC1)N(Cc1nc2ccccc2c(=O)[nH]1)Cc1cccs1
→ -5% | -12%
> Cc1nn(C)cc1CN(C)C(=O)c1cc2nc(-c3ccco3)cc(C(F)(F)F)n2n1
→ -26% | /
> CCCN1C(=O)/C(=C\C=C2/Sc3ccccc3N2CCO)SC1=S
→ 109%[activator] | 8%

# New compounds follow
SMILES,VACV Venus inh,VACV mCherry inh
O=C(O)c1cccc2c1C(=O)c1ccc(N3CCCC3)cc1S2(=O)=O,18%,i
O=C(CN(c1ccccc1)S(=O)(=O)c1ccc(F)cc1)NC1CCS(=O)(=O)C1 (configuration not stated),11%,9%
CC1CCN(S(=O)(=O)c2ccc3c(c2)N(CC(=O)NCCCN2CCCCC2C)C(=O)CS3)CC1 (configuration not stated),-9%,-8%
CCCn1c2ccccc2c2cnn(CC(=O)NCCCN3CCCCC3CC)c(=O)c21 (configuration not stated),-13%,-5%
COc1cc([C@@H]2Nc3c(F)cccc3[C@@H]3C=CC[C@@H]32)cc(Br)c1OC,-13%,-4%
O=C(CSc1nnc(NC(=O)C2CC2)s1)NCc1cccs1,-8%,i
Cc1noc(C)c1C(=O)N1CCN(c2ccccc2O)CC1,-2%,i
COC(=O)c1ccc(/C=N/NC(=O)CC(=O)NCC(C)C)cc1,-5%,-14%
Nc1ccc(O)cc1C(=O)OCC(=O)C12CC3CC(CC(C3)C1)C2,1%,/
O=C(CSc1nnc(C2CC2)n1-c1ccccc1)Nc1ccc(N2CCOCC2)cc1,-15%,-16%
Cn1nc(CC#N)c2c(=N)n(N)cnc21,-4%,-11%
CC(=O)NS(=O)(=O)c1cccnc1Nc1cccc(Cl)c1C,-5%,-12%
COc1ccc2oc(-c3ccco3)cc(=O)c2c1,5%,16%
Cc1cc(C)c2cc3c(ccn3C3OC[C@H](O)[C@H](O)[C@H]3O)cc2n1 (some centres not stated),5%,-7%
COc1ccc(C(CNC(=O)C(CCSC)NC(=O)c2ccccc2Cl)N2CCOCC2)cc1 (configuration not stated),-14%,-12%
CCN1CCCC1CNC(=O)c1ccccc1Cl (configuration not stated),-1%,/
O=C(Nc1ccc(Cl)cc1)c1cnn2c1NC(c1ccccc1)=CC2c1ccccc1 (configuration not stated),-19%,-26%
COc1cccc(CNc2ccc3c(c2)CCC3)c1,-5%,i
CCN(C(=O)CN1CCCC(C)C1)c1c(N)n(Cc2ccccc2)c(=O)[nH]c1=O (configuration not stated),-6%,i
c1nnc(NC2=NCCCCC2)s1,-11%,0%
O=C(O)CCc1nn2c3ccccc3n(Cc3ccccc3)c2nc1=O,-13%,-14%
CN(CCc1ccccc1)C1CCCN(S(=O)(=O)c2cccc(F)c2)C1 (configuration not stated),-9%,-27%
CCCOc1ccc(C(=O)Nc2cc(-c3nc4ccccc4[nH]3)ccc2C)cc1,-10%,12%
CSCCC(NS(=O)(=O)c1cccs1)C(=O)Nc1ccc(C)c(Cl)c1 (configuration not stated),5%,-1%
COc1ccc(/C=C/C(=O)c2cc(Cl)cc(Cl)c2O)c(OC)c1,0%,-2%
CN(CC(=O)Nc1ccccc1C(F)(F)F)C(=O)CSc1nnc(N)s1,2%,-17%
COc1ccc(N(CC(=O)Nc2ccc(F)c(F)c2)S(=O)(=O)c2c(C)[nH]c(=O)[nH]c2=O)cc1,-13%,i
O=C(COc1ccc(Cl)cc1)Nc1ccc(C(=O)OCc2cc(=O)n3ccsc3n2)cc1,-17%,-21%
COc1ccccc1N=Nc1[nH]c2ccc(C)cc2c1O,-3%,-13%
O=S(=O)(Cc1ccccc1)N1CCCc2ccccc21,?,-2%
CCC(=O)Nc1nc(N)n(-c2ccccc2)n1,-5%,-14%
O=C(O)CCC(=O)Nc1sc2c(c1C(=O)NC1CCCC1)CCCC2,-4%,-6%
C#CCCCCCCCCCCCC(=O)CC(O)COC(C)=O (configuration not stated),-3%,4%
O=C(C1CCN(Cc2ccc(Cl)cc2)CC1)N1CCN(Cc2ccc3c(c2)OCO3)CC1,-7%,-6%
O=C(/C=C/c1cccc([N+](=O)[O-])c1)n1cnc2ccccc21,-18%,-9%
CCOc1ccc(C2C(C#N)=C(N)Oc3cc(C)n(Cc4ccco4)c(=O)c32)cc1OC (configuration not stated),-20%,-6%[1.46 µM]
CC(C)c1ccc(NC(=O)CCS(=O)(=O)c2ccc3c(c2)CC(=O)N3C)cc1,1%,-4%
COC(=O)c1cccnc1-n1c(=O)c2cccnc2n(CC(=O)Nc2ccc(C)cc2C)c1=O,-12%,-10%
COc1ccc(/C=N/Nc2nc(NCc3ccco3)nc(Nc3ccc(OC)cc3)n2)cc1,-18%,-14%
N=NC(=O)c1ccccc1Nc1c(O)[nH]c2ccccc12,?,-7%
Cn1nc(-c2ccc(Cl)cc2)c2cc(C(=O)NCCCN3CCOCC3)sc21,-20%,4%
CCOC(=O)N1CCC(=NNC(N)=O)CC1,-5%,i
COCCn1c(C)cc(C(=O)COC(=O)/C=C/c2cccc(OC)c2)c1C,-4%,-13%
COc1cccc(NC(=O)C2CCCN(S(=O)(=O)c3ccc4[nH]c(=O)ccc4c3)C2)c1 (configuration not stated),-8%,1%
CN(C)S(=O)(=O)c1ccc(C(=O)OCC(=O)c2ccc(OC(F)F)cc2OC(F)F)cc1,-5%,/
CC(C)(C)NC(=O)C(CCc1ccccc1)n1c(=O)c(-c2ccccc2)nc2ccccc21 (configuration not stated),-12%,-14%
Cc1onc(-c2ccccc2)c1C(=O)N(Cc1ccco1)Cc1cccs1,-9%,i
CN1CCN(C(=S)NC(=O)c2ccc(Br)cc2)CC1,-19%,i

# 5 records picked at random from the list so far:
SMILES,VACV Venus inh,VACV mCherry inh
COCCn1c(C)cc(C(=O)COC(=O)/C=C/c2cccc(OC)c2)c1C,-4%,-13%
Cc1onc(-c2ccccc2)c1C(=O)N(Cc1ccco1)Cc1cccs1,-9%,i
CC(C)c1ccc(NC(=O)CCS(=O)(=O)c2ccc3c(c2)CC(=O)N3C)cc1,1%,-4%
CN(C)S(=O)(=O)c1ccc(C(=O)OCC(=O)c2ccc(OC(F)F)cc2OC(F)F)cc1,-5%,/
CC(C)(C)NC(=O)C(CCc1ccccc1)n1c(=O)c(-c2ccccc2)nc2ccccc21 (configuration not stated),-12%,-14%

# Other records.
SMILES,VACV Venus inh,VACV mCherry inh
CSc1nnc(NC(=O)c2ccc(S(=O)(=O)N3CCOCC3)cc2)s1,-13%,-5%
COc1ccccc1CNC(=O)c1c[nH]c2ccc(S(=O)(=O)Nc3cc(C)cc(C)c3)cc2c1=O,-9%,-17%
CCOC(=O)C1CCN(c2ncnc3c2cnn3C)CC1,-17%,i
Cc1ccc(C(=O)Nc2cc(Cl)ccc2-n2cncn2)o1,-2%,?
Cc1nn(CC(=O)Nc2ccccc2)c(=O)c2ccccc12,-3%,-9%
CC(C)(C)c1cc(CCC(=O)NCCc2ccccn2)cc(C(C)(C)C)c1O,-14%,-17%
[O-][N+]12CC[N+]([O-])(CC1)c1ccccc12,19%,/
O=C(COC(=O)/C=C/c1ccc(F)cc1)NC(=O)NCc1ccccc1,-9%,-15%
CNC(=O)NC(=O)CSc1ccc(NC(C)=O)cc1,7%,-8%
COc1ccccc1NC(=O)/C(=C/c1ccncc1)NC(=O)c1ccccc1,0%,-8%
O=C(Nc1ccccc1Cl)c1cc(C2CCCN(C(=O)CCc3ccccc3)C2)on1 (configuration not stated),-10%,-15%
Cc1nc(SC(C)C(=O)Nc2ccccc2Cl)cc(-c2ccccc2)n1 (configuration not stated),-6%,-4%
CN(C)c1nc(N(C)C)nc(N(C#N)CCCl)n1,-8%,-9%
CCOc1ccc2[nH]c3c(N4CCc5ccccc5C4)ncnc3c2c1,?,3.5µM*
CCOC(=O)[C@]12CCCC=C1N(CCC1=CCCCC1)C(=O)[C@H](CC(=O)NCCC(C)C)C2,-28%,-20%
O=C(Nc1ccc(F)cc1F)c1cncc(Br)c1,-12%,i
Clc1c(CSc2nc3ccccc3o2)nc2ccccn12,-7%,i
CCC1=C(OC(=O)N(CC)CC)N2C(=O)OC(=NCC(=O)OC)[C@]2(C)[C@H]2C1=CC[C@H]1C(=O)N(CC)C(=O)[C@H]12,-18%,i
Cc1ccc(S(=O)(=O)/N=C(\CN2CCCCC2)N2CCOCC2)cc1,-10%,i
CCOC(=O)c1oc2cc(C)cc(O)c2c(=O)c1-c1csc(C)n1,-9%,-9%
O=C1C=CC(=Nc2ccc3c(c2)Cc2cc(F)ccc2-3)O1,-14%,0%
O=C(Nc1ccc(F)cc1)c1ccc2nsnc2c1,-8%,-3%
O=C1CSC2(CN3CCC2CC3)N1 (configuration not stated),-2%,/
O=c1c2ccccc2oc2ncccc12,-12%,-14%
O=C(COc1ccc(C(=S)N2CCOCC2)cc1)N1CCOCC1,-13%,-1%
CC(C)c1ccc(OCc2cccc(C(=O)N/N=C/c3cccnc3)c2)cc1,-17%,-22%
COc1ccccc1N1CCN(S(=O)(=O)c2ccc(-n3cnnn3)c(C)c2)CC1,0%,-5%
COc1cc(CN2CCC(Cc3ccccc3)CC2)c([N+](=O)[O-])cc1OC,-7%,i
CN(C(=O)c1ccccc1)c1ccccc1C(=O)NCCc1ccccc1,1%,i
Cc1ccccc1NC(=O)Cn1c(O)c(N=NC(=O)c2ccccc2O)c2ccccc21,-3%,i
CC(C)(C)NC(=O)COC(=O)c1ccc(Cl)nc1,4%,i
O=C(O)C1=C[C@@H](C2CCCCC2)C[C@@H](OCCCCO)O1,-5%,-13%
